Screens: PubChem, several laboratories
rRNA inh HTS: reduced GFP signal of wild-type E. coli, primary screen, bacterial rRNA inhibitor project, GFP/RFP fluorescence, OD600, single point; GFP signal change (wild-type ribosome), % (no concentration beside the values); 350,000 tested, 1.6% active; E. coli WT GFP vs humanized-ribosome RFP mutants, 24 h; hits give low values; DMSO median 0, no signal -100; AID 720706, 2013;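 active = significant combined selectivity score with lowered wild-type GFP, culture density cut under 30%, mutant RFP and density less affected; inactive = any of these conditions unmet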; also: one replicate is shown; some compounds called inactive have numbers as strong as hits
Calb FLC: C. albicans growth inhibition with fluconazole, primary screen, CaCi-2 strain, Alamar Blue fluorescence. 300,000 tested, 0.57% active. growth inhibition, % (test concentration not listed). C. albicans CaCi-2 (fluconazole-resistant clinical isolate) + fluconazole, 48 h;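 active = most replicates above 75%; inconclusive = exactly half above 75%; inactive = most below 75%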;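 also: all wells also contain fluconazole at 8 µg/ml as a sub-toxic cotreatment; 0% = median of DMSO wells and 100% = median of geldanamycin control wells; wells of about 8 µL received 7.5 nL stock; the first replicate is given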
RanGTP-Imp inh: inhibitors of RanGTP-importin-beta interaction, primary screen, biochemical, FRET, CFP-Ran, YFP-importin-beta, homogeneous | cell-free CFP-Ran/YFP-importin-beta FRET ratio | inhibition, % (test concentration not listed) | 300,000 tested, 1.1% active;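 active = most replicates above 15%; inconclusive = exactly half above 15%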;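 also: 0% = DMSO wells and 100% = Ran loaded with GDP instead of GTP; wells of about 40 µL received 100 nL stock; the first replicate is given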
T cruzi inh: inhibitors of intracellular T. cruzi growth, primary screen, luminescence, NIH3T3 host cells; inhibition, % (no concentration beside the values); T. cruzi beta-gal in NIH3T3, 90 h; 300,000 tested, 1.4% active;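 active = mean inhibition across valid replicates above about 55%, limit read from the data; inconclusive = mean below that limit but half or more replicates reach it; inactive = mean below it, under half of replicates reach it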;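 also: signal also drops with host cell toxicity which is not excluded here; 0% = plate median of DMSO wells and 100% = zero luminescence signal; higher percent means less beta-gal luminescence so fewer parasites; stock transfer was 50 nL into about 50 µL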
MLL AF4-AF9 inh: inhibitors of AF4 peptide binding to AF9, primary screen, biochemical, AlphaScreen, biotin-AF4 peptide, FLAG-AF9, single point; Protein AF-9 (Homo sapiens), P42568; inhibition, % at 10 µM; 350,000 tested, 0.47% active;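 active = every replicate reaching a set inhibition limit, whatever the replicate mean, cut at about 25% in these data; inconclusive = mean inhibition reaches that limit but some replicates miss it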;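 also: 0% = plate neutral control median and 100% = total signal loss; the record names both 10 and 1 µM as test concentration; the first replicate is given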
Target sequence (P42568 whole entry, looked up): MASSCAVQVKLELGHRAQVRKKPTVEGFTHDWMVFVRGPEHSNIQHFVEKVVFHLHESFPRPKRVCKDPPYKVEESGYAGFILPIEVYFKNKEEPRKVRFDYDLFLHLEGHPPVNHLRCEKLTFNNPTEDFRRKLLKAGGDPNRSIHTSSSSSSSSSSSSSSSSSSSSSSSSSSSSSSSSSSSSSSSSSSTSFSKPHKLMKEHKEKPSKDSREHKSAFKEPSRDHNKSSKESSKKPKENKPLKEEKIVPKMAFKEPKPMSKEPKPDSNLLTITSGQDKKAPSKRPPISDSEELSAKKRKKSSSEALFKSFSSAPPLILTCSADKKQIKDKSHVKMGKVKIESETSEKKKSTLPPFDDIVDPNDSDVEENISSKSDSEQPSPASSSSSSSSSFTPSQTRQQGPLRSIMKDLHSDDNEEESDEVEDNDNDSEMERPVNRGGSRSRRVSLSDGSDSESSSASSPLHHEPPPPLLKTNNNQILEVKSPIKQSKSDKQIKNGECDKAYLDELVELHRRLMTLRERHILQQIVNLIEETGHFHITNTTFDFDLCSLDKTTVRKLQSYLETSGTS
Beta apoptosis: inhibitors of cytokine-induced beta cell apoptosis, primary screen, luminescence. 300,000 tested, 0.8% active. AID 435005, 2010. protection from apoptosis, % (test concentration not listed). INS-1E cytokine-induced death, ATP luminescence, 48 h; percent of positive-control rescue, neutral wells zero;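 active = all replicates at 75% or more, or half of them and the mean; inconclusive = half reach 75% but not the mean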;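 also: 0% = cytokine-treated negative control wells and 100% = positive control rescue; higher means more ATP so stronger rescue from cytokine killing; wells of about 40 µL received 100 nL stock; the first replicate is given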
Vif TR-FRET: inhibitors of Vif binding to APOBEC3G peptide, primary screen, biochemical, TR-FRET, GST-Vif 1-94, biotin-A3G peptide, dose response retest (AID 1117319); inhibition, %, or IC50 in µM where a hit was titrated; 260,000 tested, 0.57% active; Virion infectivity factor (Human immunodeficiency virus type 1 group M subtype B (isolate …; TR-FRET GST-Vif / biotin-A3G peptide binding; higher % means a stronger effect; test concentration not given here; strong numbers were not always called active;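 active = above the screen mean plus three standard deviations and confirmed in dose response; inconclusive = results disagree or hit not tested in dose response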;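 also: Vif residues 1-94 fused to GST binding biotinylated APOBEC3G peptide 110-148; 0% = full assay without inhibitor and 100% = GST in place of GST-Vif; retest series ran down from 100 µM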
Bfl-1 A1 inh: caspase 3/7 activation in MEF A1-2A-BIM cells, primary screen, A1 inhibitor project, cell-based, luminescence, HTS. AID 2462, 2010. Caspase-Glo 3/7 luminescence, 3 h; percent of clofoctol response, vehicle zero. caspase activation, % (test concentration not listed). 330,000 tested, 0.066% active;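 active = over half of replicate activation scores above 10%, or exactly half above 10 with the replicate mean above 10; inconclusive = replicate mean below 10 yet half the replicates above 10; inactive = over half of replicates below 10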;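 also: wells of about 30 µL received 50 nL stock; many hits fall short of the cut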
rRNA inh HTS OD600: recorded beside rRNA inh HTS, whose call it bears; OD600 change, %; measured here: OD600 growth;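 optical density of the mix in the first replicate; 0 = DMSO median and -100 = no signal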
rRNA inh HTS RFP: further read-out of rRNA inh HTS, marked with its call; RFP signal change, %; measured here: RFP humanized mutant strains;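 first replicate; 0 = DMSO median and -100 = no signal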
Active calls of the source: *; u = inconclusive; x = no result given.

Sequence of screens – rRNA inh HTS	rRNA inh HTS OD600	rRNA inh HTS RFP	Calb FLC	RanGTP-Imp inh	T cruzi inh	MLL AF4-AF9 inh	Beta apoptosis	Vif TR-FRET	Bfl-1 A1 inh
1. Cc1csc(SCC(=O)Nc2cc(S(=O)(=O)N(C)C)ccc2C)n1
 : 3	7	2.7	-3	-3.2	-1	-1.2	-2	-2%	-0.2
2. Cc1ccc(S(=O)(=O)CCc2nc3ccccc3[nH]2)cc1C
 : 14	6	2.3	23	8.1	18	-1.6	1	x	0.0
3. Cc1ccc(CCNC(=O)c2cc(-c3ccncc3)nc3ccc(S(=O)(=O)N4CCOCC4)cc23)cc1
 : 0	5	-1.4	-4	-1.0	14	-0.1	9	x	6.4*
4. Cc1ccc(S(=O)(=O)NCC(c2ccco2)N2CCOCC2)cc1 (centres undefined)
 : x	x	x	2	-0.9	0	x	-6	x	1.2
5. O=c1ccsn1Cc1ccccc1
 : x	x	x	2	-3.3	67*	x	9	3%	0.7
6. O=C(CSc1nc2ccccc2[nH]1)Nc1ccc2c(c1)OCCO2
 : x	x	x	-18	-1.1	2	x	5	25%	-0.6
7. CC(=O)N1c2ccc(S(=O)(=O)N(C)CC(=O)NCc3ccccc3)cc2CC1C (centres undefined)
 : 4	-6	4.7	7	4.2	-3	1.5	-3	x	0.0
8. Cc1cc([N+](=O)[O-])c(NC2CCCCC2)c([N+](=O)[O-])c1
 : x	x	x	5	3.0	0	x	2	x	0.0
9. CCC1CCCCN1S(=O)(=O)c1ccc(-n2cnnn2)c(C)c1 (centres undefined)
 : -3	-3	-2.2	1	0.5	7	-5.2	4	x	0.5
10. COc1ccccc1NC(=O)/C(N=Nc1ccc(C)c(S(=O)(=O)Nc2ccccc2Cl)c1)=C(\C)O
 : 18	17	0.1	x	x	x	-24	17	-4%	2.1
11. COC(=O)C1=C(C)N(Cc2ccccc2)C(=O)N[C@H]1c1ccccc1
 : -14	-1	-5.6	9	5.3	14	-10	-14	4%	-0.4
12. CCOC(=O)c1ccc(NC(=O)CSc2nnc(C3CC3)n2C)cc1
 : x	x	x	3	-0.4	2	x	-15	28%	0.3
13. N#CCC(=O)N/N=C/c1ccc(OC2CSC2)cc1
 : 6	14	1.5	20	3.0	-10	-1.2	-5	3%	2.1
14. CCN(Cc1ccccc1)C(=O)COC(=O)Cn1cnc2ccccc21
 : -1	2	-1.5	18	4.6	-6	1.5	-1	x	-1.3
15. COc1cccc(N/C(N)=N/c2nc(C(F)(F)F)cc(=O)[nH]2)c1
 : x	x	x	41	4.0	-12	x	10	-3%	0.3
16. COc1ccc(CN2C(=O)CN(C3CCCCCC3)C(=O)C2c2ccc(F)cc2)cc1 (centres undefined)
 : x	x	x	-13	8.4	8	x	-2	-2%	0.2
17. Cc1ccc(/C=N/NC(=O)Cn2cncn2)cc1
 : 10	10	1.3	10	-0.8	-21	0.1	0	-5%	-0.7
18. O=C(CCS(=O)(=O)c1ccccc1)NNC(=O)COc1ccc(F)cc1
 : 7	13	0.6	x	x	x	0.5	0	x	0.6
19. COc1cc(C(=O)NCc2cc3ccccc3n2C)cc(OC)c1OC
 : 8	1	0.3	-4	-1.2	6	4.1	-1	x	-1.0
20. C#CCOCCOCCOCCNc1nc(N2CCN(C(=O)[C@H](CCC(=O)O)n3cc([C@@H](N)[C@H](C)CC)nn3)CC2)nc(N2CCN(C(=O)[C@H](CCC(=O)O)n3cc([C@@H](N)CC(N)=O)nn3)CC2)n1
 : 20	12	0.2	x	x	x	-2.2	-9	-2%	-0.1

Taken from above, nine compounds:
Sequence of screens – rRNA inh HTS	rRNA inh HTS OD600	rRNA inh HTS RFP	Calb FLC	RanGTP-Imp inh	T cruzi inh	MLL AF4-AF9 inh	Beta apoptosis	Vif TR-FRET	Bfl-1 A1 inh
1. Cc1csc(SCC(=O)Nc2cc(S(=O)(=O)N(C)C)ccc2C)n1
 : 3	7	2.7	-3	-3.2	-1	-1.2	-2	-2%	-0.2
2. Cc1ccc(S(=O)(=O)CCc2nc3ccccc3[nH]2)cc1C
 : 14	6	2.3	23	8.1	18	-1.6	1	x	0.0
3. Cc1ccc(CCNC(=O)c2cc(-c3ccncc3)nc3ccc(S(=O)(=O)N4CCOCC4)cc23)cc1
 : 0	5	-1.4	-4	-1.0	14	-0.1	9	x	6.4*
4. Cc1ccc(S(=O)(=O)NCC(c2ccco2)N2CCOCC2)cc1 (centres undefined)
 : x	x	x	2	-0.9	0	x	-6	x	1.2
5. O=c1ccsn1Cc1ccccc1
 : x	x	x	2	-3.3	67*	x	9	3%	0.7
6. O=C(CSc1nc2ccccc2[nH]1)Nc1ccc2c(c1)OCCO2
 : x	x	x	-18	-1.1	2	x	5	25%	-0.6
7. CC(=O)N1c2ccc(S(=O)(=O)N(C)CC(=O)NCc3ccccc3)cc2CC1C (centres undefined)
 : 4	-6	4.7	7	4.2	-3	1.5	-3	x	0.0
8. Cc1cc([N+](=O)[O-])c(NC2CCCCC2)c([N+](=O)[O-])c1
 : x	x	x	5	3.0	0	x	2	x	0.0
9. CCC1CCCCN1S(=O)(=O)c1ccc(-n2cnnn2)c(C)c1 (centres undefined)
 : -3	-3	-2.2	1	0.5	7	-5.2	4	x	0.5

(list continues)
Sequence of screens – rRNA inh HTS	rRNA inh HTS OD600	rRNA inh HTS RFP	Calb FLC	RanGTP-Imp inh	T cruzi inh	MLL AF4-AF9 inh	Beta apoptosis	Vif TR-FRET	Bfl-1 A1 inh
21. Cc1cccc(N2CCN(S(=O)(=O)c3cnc[nH]3)CC2)c1C
 : -7	-8	-0.9	12	2.1	-1	0.6	x	3%	-0.2
22. COc1ccc(C(=O)NC(=O)Nc2cc(C)ccn2)cc1
 : 15	8	-1.0	1	3.2	-13	-11	-1	9%	-7.3
23. O=C(c1cn(-c2ccccc2)nc1-c1cccnc1)N1CCCCC1
 : x	x	x	-2	1.4	-2	x	-6	5%	0.0
24. CCn1c(SCc2nc(-c3ccccc3)no2)nc2ccccc21
 : -22	-45	-2.4	-5	-5.0	-1	-5.4	-15	1%	0.4
25. Cc1no[n+]([O-])c1COc1ccccc1/C=C1\NC(=S)NC1=O
 : x	x	x	2	-3.7	-19	x	0	2%	-0.3
26. COc1ccccc1NC(=O)Cc1nc(CCl)cs1
 : x	x	x	-13	0.1	-15	x	-5	x	0.6
27. COC(=O)C(C(=O)Nc1cccc(Cl)c1C)C1CCCC1 (centres undefined)
 : -2	-2	-3.6	-27	4.7	-20	1.7	0	2%	-0.5
28. CCOC(=O)N1CCN(C(=O)CSc2ccc(-c3ccccc3OC)nn2)CC1
 : -6	-3	1.3	11	2.1	-11	-3.4	x	1%	0.0
29. CCOC(=O)Cn1c(=O)c2c(nc3n2CCCCN3c2ccc(OCC)cc2)n(C)c1=O
 : 4	6	-5.3	13	0.2	20	-10	1	x	-0.1
30. Cc1ccc(C2=NC3(CCCC3)NC2=S)cc1
 : 2	-4	-7.9	1	5.9	-33	3.0	-3	1%	u
31. O=C(Nc1cccc(F)c1)NC1(C(=O)NCC2CCCO2)CCCCC1 (centres undefined)
 : 3	1	-0.3	0	0.9	5	-36	0	x	0.1
32. CCOC(=O)C(NCCc1ccccc1F)(NC(=O)CC)C(F)(F)F (centres undefined)
 : 13	6	-0.8	18	5.9	-5	2.3	x	x	-0.6
33. CCN(Cc1ccccc1)C(=S)NC(=O)c1ccccc1Br
 : -43	-46	-5.8	0	-2.6	-17	2.7	0	-3%	-0.2
34. Clc1cccc(/C(Cc2nc3ccccc3[nH]2)=N\Nc2ccccc2)c1
 : x	x	x	14	-3.4	5	1.5	13	x	-1.0
35. COc1ccccc1OCCn1c(C)c(C=O)c2ccccc21
 : -14	-17	0.5	12	-2.0	4	0.9	10	x	0.4
36. Cc1ccc(/C=C(\NC(=O)c2ccccc2)C(=O)N2CCCCC2)cc1
 : -1	-14	1.9	2	-0.2	-10	-12	0	x	0.8
37. COc1ccc2[nH]c3c(c2c1)CC(C)NC3=O (centres undefined)
 : 11	17	1.1	0	3.8	-2	0.9	-21	-5%	u
38. COc1ccc(S(=O)(=O)c2c(O)c3ccc(C(=O)Nc4ccc(F)cc4)cc3[nH]c2=O)cc1
 : -1	0	-2.3	14	8.2	0	1.3	x	-1%	0.6
39. NS(=O)(=O)c1ccc(CNC(=O)C(Cc2ccccc2)NS(=O)(=O)c2ccccc2F)cc1 (centres undefined)
 : 3	-4	3.8	4	4.1	1	0.9	-2	-15%	-1.3
40. CCC(c1nnnn1C(C)(C)C)N1CCN(C(=O)c2ccco2)CC1 (centres undefined)
 : 0	6	-1.2	-9	5.3	7	-4.2	0	-6%	0.3
41. COc1ccccc1CNC(=O)c1ccccc1OCc1ccc(F)cc1
 : x	x	x	-2	-1.0	29	x	9	x	0.3
42. CCOC(=O)N1CCN(C(=O)C2CCC(=O)N(CCc3ccccc3)C2)CC1 (centres undefined)
 : 4	12	0.3	-5	-4.3	-1	-1.9	2	x	0.7
43. Cc1cc(-c2cc(C(=O)NCc3ccccc3)on2)nc(NCC2CC2)n1
 : -3	0	-0.4	-7	-2.6	-4	x	2	2%	-0.6
44. Cn1c(=O)c2sccc2n(Cc2ccccc2)c1=O
 : 11	6	2.6	2	1.4	2	0.3	-6	x	0.8
45. CCN(CC)CCOC(=O)c1ccc(NC(=O)c2ccc(Cl)c(S(=O)(=O)N3CCCCCC3)c2)cc1
 : -15	1	32	25	-2.3	3	12	4	0%	0.6
46. CC(=O)c1cccc(NC(=S)NC(=O)c2cncc(Br)c2)c1
 : -19	-18	-2.8	-1	-3.1	-8	-1.9	11	x	0.9
47. O=C(NCc1ccccc1)c1ccccc1NC(=O)C1CCCCC1
 : -11	-21	-2.9	9	-0.9	9	-0.9	-12	3%	0.2
48. O=[N+]([O-])c1cc(/C=N/n2cnnc2)ccc1N1CCCC1
 : x	x	x	7	0.4	17	-7.1	0	8%	1.2
49. O=C(NC(=S)NCCc1ccccc1)c1cccc(Cl)c1
 : -36	-67	-0.8	-21	3.1	8	-3.2	x	16%	-2.6
50. O=C1c2ccccc2C(=O)c2c1ccc1c(=O)n(C3CCCCC3)[nH]c21
 : -5	-2	0.1	u	-1.7	12	x	28	-2%	-0.5
51. Cc1ccc(-n2c3nc(=O)[nH]c(=O)c-3cc3cc([N+](=O)[O-])ccc32)cc1C
 : 10	11	3.1	-80	9.2	6	0.3	14	x	-0.3
52. COc1ccc(C(=O)COC(=O)Cn2c(C)csc2=O)c(OC)c1
 : 3	0	-0.3	x	-6.3	8	0.5	0	-6%	0.5

The list is partial. The share of hits here may be higher or lower than overall.
